Assay outcomes: PubChem, National Center for Advancing Translational Sciences (NCATS)
gsp antag: qHTS for Antagonists of gsp, the Etiologic Mutation Responsible for Fibrous Dysplasia/McCune-Albright Syndrome: qHTS. gsp-mutant cells, cAMP HTRF, 30 min; control for the full effect not named in the record. Potency, µM (doses to about 76.9 µM), without a hit: at the highest dose activity change, negative = inhibition, most hits filed as inhibitors. hit rate 0.4% among 340,000. AID 624288, 2012; active = falling curve of any shape with a large fitted effect; inconclusive = falling curve, mostly with a smaller effect; inactive = flat or rising curve; cell line not stated here;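 also: intracellular cAMP measured with PDE inhibitor Ro 20-1724 present during compound exposure; potency is read from the fitted curve at half-maximal effect; % is scaled to controls: 0 for no effect and ±100 for the full control effect; nearly all actives have a fitted effect of over 65% in size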
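G418-selected cells were plated in DMEM/10% FBS for 16-24 h at 37C, then treated with compounds plus the PDE inhibitor […] (300 uM solution added) for 30 min at 37C. Intracellular cAMP was measured by HTRF after 30 min lysis at room temperature.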
gsp ag: qHTS for Agonist of gsp, the Etiologic Mutation Responsible for Fibrous Dysplasia/McCune-Albright Syndrome: qHTS; hit rate 0.13% among 340,000; gsp mutant cells, cAMP HTRF, 30 min; control for the full effect not named in the record; AID 624287, 2012; Potency, µM (doses to about 76.9 µM), for the others: at the top dose activation (cAMP increase), hits mostly activators; active = well fitted activation curve with a large enough effect; inconclusive = small, poorly fitted or top-dose-only effect, or another doubt; inactive = no such curve, though single readings can be large or run the other way; cell line not stated here;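 also: phosphodiesterase inhibitor Ro 20-1724 added with compounds to block cAMP breakdown; potency is read from the fitted curve at half-maximal effect; nearly all actives have a fitted effect of over 60% in size; about a fifth of the inactives were tested at one dose only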
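Cells stably selected in G418 were plated at 2000/well, grown 16-24 hr, then given compounds in DMSO with the PDE inhibitor […] (300 uM solution added) for 30 min at 37C; cAMP was read by HTRF.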
D2 PAM: Beta-Arrestin HTS for Positive Allosteric Modulators of the Human D2 Dopamine Receptor: Potentiators; potentiation, % (no concentration beside the values); D(2) dopamine receptor (Homo sapiens), P14416; AID 624464, 2012; hit rate 0.23% among 360,000; DiscoveRx D2 beta-arrestin cells, luminescence, 90 min; 100% = 57 uM dopamine signal; active = potentiation of 50% or more; inconclusive = 30% to 50%; inactive = 30% or less;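 also: compound concentration not given in the record; tested on top of an EC20 dose of dopamine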
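PathHunter beta-arrestin assay in DiscoveRx D2 cells. Compounds were added with an EC20 of dopamine (50 nM final) for 90 min at 37 deg C. Luminescence was read 1 h after detection reagent, with 57 uM dopamine as the EC100 control.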
D2 ag: Beta-Arrestin HTS for Positive Allosteric Modulators of the Human D2 Dopamine Receptor: Agonists | D(2) dopamine receptor (Homo sapiens), P14416 | DiscoveRx PathHunter D2 beta-arrestin, luminescence, 90 min; 100% = 57 uM dopamine signal | activation, % (no concentration beside the values) | hit rate 0.084% among 360,000 | AID 624465, 2012; in the data active = activation above about 40%; inconclusive = about 15% to 40%; inactive = below about 15%; also: compound concentration not given in the record; the text of the record calls up to 30% inactive
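Agonist mode: compounds alone added to overnight-plated D2 PathHunter cells for 90 min at 37 C, with 57 uM final dopamine (EC100) defining full response. Beta-arrestin recruitment detected by chemiluminescent reagent, read after 1 h at ambient temperature.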
Six1-Eya2 inh: qHTS Assay for Inhibitors of the Six1/Eya2 Interaction; AlphaScreen GST-Six1/His-Eya2 binding, biochemical; hits give low values; control for the full effect not named in the record; activity change, % (test concentration not listed); hit rate 0.56% among 360,000; in the data active = activity change below about -65%; inconclusive = about -30% to -65%; inactive = above about -30%; also: % is scaled to controls: 0 for no effect and ±100 for the full control effect; compound concentration not given in the record
Target sequence (O00167 whole entry, looked up): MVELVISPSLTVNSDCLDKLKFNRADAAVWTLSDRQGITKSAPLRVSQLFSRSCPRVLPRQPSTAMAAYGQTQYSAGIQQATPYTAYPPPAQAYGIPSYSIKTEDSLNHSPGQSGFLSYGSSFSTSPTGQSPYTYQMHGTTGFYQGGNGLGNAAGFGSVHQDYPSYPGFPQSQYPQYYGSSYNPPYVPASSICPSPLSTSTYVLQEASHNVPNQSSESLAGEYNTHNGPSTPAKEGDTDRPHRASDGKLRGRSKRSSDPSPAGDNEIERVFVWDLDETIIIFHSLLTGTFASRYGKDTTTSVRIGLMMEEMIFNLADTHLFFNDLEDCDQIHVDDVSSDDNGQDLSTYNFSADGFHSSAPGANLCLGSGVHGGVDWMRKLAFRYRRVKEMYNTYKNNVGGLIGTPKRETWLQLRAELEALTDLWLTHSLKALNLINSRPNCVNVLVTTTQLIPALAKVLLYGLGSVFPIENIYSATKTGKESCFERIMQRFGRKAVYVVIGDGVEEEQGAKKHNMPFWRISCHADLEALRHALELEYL
Target sequence (Q15475 whole entry, looked up): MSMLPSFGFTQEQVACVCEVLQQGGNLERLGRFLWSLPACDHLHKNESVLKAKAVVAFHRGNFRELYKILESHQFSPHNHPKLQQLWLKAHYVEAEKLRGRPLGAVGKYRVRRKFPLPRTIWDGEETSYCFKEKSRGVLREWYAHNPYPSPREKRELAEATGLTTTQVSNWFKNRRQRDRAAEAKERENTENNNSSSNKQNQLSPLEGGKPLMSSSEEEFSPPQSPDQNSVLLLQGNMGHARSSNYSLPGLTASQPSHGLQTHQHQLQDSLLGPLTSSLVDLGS
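Compounds are tested against tagged Six1 and Eya2 proteins bridged by glutathione donor and nickel acceptor beads; after a one-hour incubation at 37 °C without light, AlphaScreen emission is recorded.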
CtBP-E1A inh: qHTS Assay for Inhibitors of the CtBP/E1A Interaction; AlphaScreen GST-E1A/His-CtBP binding, 1536-well; hits give low values; control for the full effect not named in the record; activity change, % (test concentration not listed); hit rate 0.49% among 340,000; in the data active means activity change below about -65%; inconclusive means about -30% to -65%; inactive means above about -30%; also: % is scaled to controls: 0 for no effect and ±100 for the full control effect; compound concentration not given in the record
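AlphaScreen with 125 nM GST-E1A and 125 nM His-CtBP (5X stocks) in Tris pH 8.0, 300 mM NaCl, BSA, Tween 20, TCEP. Compounds preincubated 2 h at 37 deg C, then glutathione donor/nickel acceptor beads added for 1 h at 37 deg C in dark.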
* marks the source's active call; other numbers are inactive results; u = inconclusive; x = not tested or not shown; [ ] = dose if it differs, or a comment. Not all compounds are listed; the hit share may differ from the screen's.

Each structure is followed by: gsp antag	gsp ag	D2 PAM	D2 ag	Six1-Eya2 inh	CtBP-E1A inh
> O=[N+]([O-])c1cc(F)c(N2CCCCCC2)cc1N1CCNCC1
 : 11%	16%	-4	-4.1	-3	-2
> O=C(N/N=C/c1c(O)n(CCc2ccccc2)c(=O)[nH]c1=O)c1ccncc1
 : 12%	3%	-11	2.1	u	u
> O=C(O)Cn1cc(/C=C2\C(=O)NC(=O)N(Cc3ccco3)C2=O)c2ccccc21
 : -14%	-1%	-10	1.2	u	-14
> CC1CCCC(C2(O)C(=O)Nc3ccccc32)C1=O (centres undefined)
 : 6%[15.4 µM]	u	2	-2.0	-6	-3
> CCOP(=O)(OCC)c1ccc(O)cc1
 : -11%	9%	-2	-3.5	-10	x
> O=C(C(=O)N1CCOCC1)c1cn(Cc2ccc(F)cc2)c2ccccc12
 : -30%	-10%	-9	-0.8	10	0
> CCOC(=O)CSCCOc1ccc(C=C2C(=O)NC(=O)NC2=O)cc1OC
 : -16%	-3%	-3	-0.5	-20	-6
> Cc1cccc(N2CCN(CCc3ccccc3)CC2)c1C
 : 1%	u	-26	-8.5	-7	7
> COC1=CC(=O)OC(/C=C/c2ccccc2)C1 (centres undefined)
 : -10%	x	0	-3.1	2	8
> CN(C)C1(CNC(=O)c2cc(S(=O)(=O)N3CCOCC3)c(Cl)cc2Cl)CCCCC1
 : 10%	-6%	-15	-2.3	-1	4
> COCCN1C(=NCCCOC(C)C)N[C@@H](c2ccccc2)C(C(=O)OC)=C1C
 : 4%	u	-5	-2.6	14	-17
> O=C(O)C1C2c3ccccc3C(=O)C1(C(=O)O)c1ccccc12 (centres undefined)
 : 10%	0%	8	1.4	3	8
> O=C1CC=C2C3CC4N(CCC45c4cc(O)c(O)cc4N1C25)CC3=CCBr (centres undefined)
 : -18%	u	12	9.2	-23	3
> CCOC(=O)C(O)(c1ccc(N(C)C(=O)COc2ccccc2)cc1)C(F)(F)F (centres undefined)
 : -18%	-31%	-10	-0.7	6	-10
> CN(N)N=Nc1nc2c([nH]1)c(=O)n(C)c(=O)n2C
 : -1%	18%[15.4 µM]	-13	0.0	-4	8
> O=C(CN1CCCCC1)c1ccc(F)cc1
 : 15%	-8%	-16	0.7	4	3
> CN(C)C(=O)Oc1ccc2c(c1)O/C(=C\c1cccc([N+](=O)[O-])c1)C2=O
 : 7%	15%	3	-0.8	3	7
> CC(=NCCC(c1ccccc1)c1ccccc1)c1c(O)n(C)c(=O)n(C)c1=O
 : 7%	-14%	-14	-2.2	2	-1
> CC(=O)CC(c1ccc2c(c1)OCO2)c1c(O)c2ccccc2oc1=O (centres undefined)
 : x	-21%	5	-0.2	-1	0
> COC(=O)c1ccc(N2CCN(C)CC2)c([N+](=O)[O-])c1
 : 7%	29%[15.4 µM]	-11	-14	4	20
> CN(C)S(=O)(=O)c1cc(NC(=O)C[N+]23CCN(CC2)CC3)ccc1Cl
 : 15%	1%	-12	-4.7	-4	-6
> CC1(C)OC(c2ccccc2)=C/C(=C/C=C2C(=O)NC(=O)NC2=O)O1
 : 3%	1%	-14	3.3	9	x
> CCCCN1C(=O)NC(=O)C2(Cc3cc(C)ccc3N(C)C2)C1=O (centres undefined)
 : 3%	-4%	-26	-3.2	-9	-12
> Cc1cccc(OP(=O)(NCc2ccccc2)Oc2cccc(C)c2)c1
 : u	-5%[15.4 µM]	-18	2.9	11	17
> Cc1ccc(-[n+]2c(Cc3nn(-c4ccccc4)c(C)[n+]3-c3ccc(C)cc3)nn(-c3ccccc3)c2C)cc1
 : x	-46%[inhibitor]	-18	-3.3	-1	1
> Cc1ccc(N2C(=O)NC(=O)/C(=C\c3cc(C)n(-c4cc(C(=O)O)cc(C(=O)O)c4)c3C)C2=O)cc1
 : 6%	11%[15.4 µM]	-5	-4.0	u	-14
> CCC1=Nc2cc(C(=O)N3CCC4(CC3)OCCO4)ccc2Sc2ccc(C)cc21
 : 5%	0%	-10	0.5	-10	x
> CC(C)c1ccc(OCC(=O)N2CCN(C)CC2)c(Br)c1
 : -1%	5%	-17	-1.2	-2	-7
> CCCCn1c(=O)c(C(=O)Nc2ccccc2N)c(O)c2ccccc21
 : 1%	0%	20	2.7	-4	x
> CN1C2CCC1C(C(=O)O)C(O)C2 (centres undefined)
 : 1%	x	-7	1.5	8	-3

Profiles, quoted from the list.
CCC1=Nc2cc(C(=O)N3CCC4(CC3)OCCO4)ccc2Sc2ccc(C)cc21 reads gsp antag: 5%; gsp ag: 0%; D2 PAM: -10; D2 ag: 0.5; Six1-Eya2 inh: -10; CtBP-E1A inh: x
CC(=O)CC(c1ccc2c(c1)OCO2)c1c(O)c2ccccc2oc1=O (centres undefined) reads gsp antag: x; gsp ag: -21%; D2 PAM: 5; D2 ag: -0.2; Six1-Eya2 inh: -1; CtBP-E1A inh: 0

More records
Each structure is followed by: gsp antag	gsp ag	D2 PAM	D2 ag	Six1-Eya2 inh	CtBP-E1A inh
> CCC(=O)OC1CCC2C3CCC4CC(=O)C=CC4(C)C3CCC12C (centres undefined)
 : -3%	-33%[inhibitor]	-4	-0.6	7	3
> C#CCOc1cc(C2C3=C(COC3=O)Nc3cc4c(cc32)OCO4)ccc1OC (centres undefined)
 : 29%	-36%[inhibitor]	-11	3.3	-17	-23
> CN(C)c1ccc(NC(=O)CN2C(=O)CN=C(c3ccccc3)c3ccccc32)cc1
 : -17%	4%	-15	-4.1	-9	u
> Cc1ccc(C2CC(=O)C(C=NCCN3CCN(C(=O)Cc4ccccc4)CC3)=C(O)C2)cc1 (centres undefined)
 : 3%	2%	0	-0.7	13	9
> CCOC(=O)C1(CCc2ccccc2)CCN(C2CCSCC2)CC1
 : 5%	-25%	-11	-1.6	-14	2
> Cc1cc(=O)oc2cc(OCC(=O)N3CCN(Cc4ccc5c(c4)OCO5)CC3)ccc12
 : u	17%	-8	-2.4	-3	-13
> O=C(Cc1ccccc1)N1CCN(Cc2cccc(Br)c2)CC1
 : 10%	u	-22	-9.5	-3	3
> Cc1ccc(OC(=O)N(C)C[C@H]2OCc3cnnn3CCCC(=O)N([C@@H](C)CO)C[C@H]2C)cc1
 : x	-93%[inhibitor]	-3	-6.4	-7	0
> COc1ccc(F)cc1C(=O)C1CCCN(Cc2cnc(C)s2)C1 (centres undefined)
 : 1%	-19%	-5	-2.3	-1	0
> Nc1c(C(=O)NCCN2CCOCC2)c2nc3ccccc3nc2n1Cc1ccccc1
 : 22%	-2%[15.4 µM]	-3	2.2	4	6
> CCN1C[C@@]2(COC)C3[C@@H](OC)[C@H]4[C@@H]1[C@@]3(C1C[C@H]3[C@H](OC(C)=O)C1[C@]4(OC(C)=O)C[C@H]3OC)[C@@H](OC)C[C@H]2OC(C)=O (some centres undefined)
 : 1%	x	-22	-2.8	8	11
> C=CCn1c(O)c(/C=N/NC(=O)CCCC)c(=O)[nH]c1=S
 : -33%	12%[15.4 µM]	11	3.6	u	9
> CCCCCCn1c(=O)c(C(=O)Nc2nc(CC(=O)OCC)cs2)c(O)c2ccccc21
 : 6%	2%[15.4 µM]	-11	0.7	-4	0
> CCN1CCOC(c2ccccc2)C1 (centres undefined)
 : 19%	-14%	5	4.5	0	-1
> CCCC(C)C1(CC)C(=O)NC(=Nc2ccccc2OC)NC1=O (centres undefined)
 : 6%	18%	-6	-0.7	1	7
> C#C[C@@]1(O)CCC2C3CCC4=C/C(=N/OCC(=O)NC(C(=O)NC(CC(C)C)C(=O)O)C(C)C)CC[C@]4(C)C3CC[C@@]21C (some centres undefined)
 : -18%	29%	-4	1.5	0	4
> O=C(c1ccc(N2CCCCCC2)c([N+](=O)[O-])c1)N1CCC2(CC1)OCCO2
 : -1%	-8%[15.4 µM]	-7	-6.2	1	-5
> CN1CCC(N(C)c2nc(-c3ccccc3)nc3ccccc23)CC1
 : 1%	20%	-23	-1.6	-11	-23
> COc1c(O)ccc2c1-c1c3c(cc4c1C(C2)N(C)CC4)OCO3 (centres undefined)
 : 3%	26%	-19	2.6	0	-5
> C[C@@H]1CN([C@H](C)CO)C(=O)CCCn2nncc2CO[C@H]1CN(C)C(=O)Nc1ccc(N2CCCCC2)cc1
 : x	-28%	-5	-3.7	4	-13
> CN(C)C(=Nc1ccccc1)P(=S)(N(C)C)N(C)C
 : 13%	-6%[15.4 µM]	-5	-1.9	3	0
> O=C(Nc1cccnc1)c1c(O)c2c(n(Cc3ccccc3)c1=O)CCCC2
 : u	-60%[inhibitor]	-5	-0.1	-9	-1
> COc1ccc(C(CNC(=O)c2ccc3c(c2)CCC3)N(C)C)cc1 (centres undefined)
 : 10%	6%	-17	-3.6	3	-3
> COc1cc2c(cc1OC)C(C(=O)N(C)C1CCCCC1)C1CCCCN1C2=O (centres undefined)
 : -20%	15%	0	-4.3	13	0
> COc1ccc(P2(=O)Nc3ccccc3N2)cc1
 : -4%	-2%[15.4 µM]	2	-1.0	-1	-4
> O=c1[nH]c(=S)n(Cc2ccco2)c(O)c1C=NCc1cccs1
 : 13%	5%	8	0.4	-4	-12
> O=C(O)CN1C(=O)CN=C(c2ccccn2)c2cc(Cl)ccc21
 : 15%	-2%	x	0.7	-27	x
> CC(C)N(Cc1nccn1C)C(=O)CCc1nnc(CCCc2ccccc2)o1
 : 0%	6%	-6	0.9	-3	x
> CC(=NCCCN1CCOCC1)c1c(O)n(-c2ccccc2C)c(=O)[nH]c1=O
 : 10%	2%	-8	-4.1	4	-2
> COc1ccc(C(CC(=O)N2CCC3(CC2)OCCO3)NS(=O)(=O)c2ccc(C)cc2)cc1 (centres undefined)
 : 6%	-33%[inhibitor]	-4	-0.1	0	7
> O=C(CCCN1CCC2(CC1)C(=O)NCN2c1ccccc1)c1ccc(F)cc1
 : 5%	x	x	x	2	4
> CCOc1ccccc1CN1C2CCC1CC(c1ccc(C)cc1)C2 (centres undefined)
 : -5%	-18%	-2	0.3	21	0
> CCOC(=O)CC1c2ccccc2-n2nncc2CN1C (centres undefined)
 : 1%	x	x	-3.2	7	-3
> O=[N+]([O-])c1ccc(O)c([N+](=O)[O-])c1
 : -25%	x	5	-3.6	2	2
> COc1cc(OC)cc(-n2nc(C(=O)N3CCC4(CC3)OCCO4)c3ccccc3c2=O)c1
 : 1%	21%	x	-0.8	4	0
> O=C(COC(=O)Cc1ccccc1)NC(=O)NC1CCCCC1
 : 8%	-1%[15.4 µM]	14	-4.8	-4	1
> O=C(Cc1ccccc1)OCc1ccccc1
 : -8%	x	-6	-1.2	5	0
